From PubChem BioAssay
MT1-MMP act inh = blocks activation of human MT1-MMP. HT1080 RFP-PRO-GFP cells, GFP/RFP ratio fluorescence, overnight; percent of plate control window, DMSO zero. GFP/RFP ratio change, % at 20 µM. 360,000 tested, 0.061% active. AID 651647;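 active = GFP/RFP ratio change of at least 30% with cell ATP level not reduced by more than half and red fluorescence within 50% of control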; also: strong numbers were not always called active
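Assay system: HT1080 RFP-PRO-GFP cells | Dosing: 20 µM single dose, 1% DMSO | Incubation: Cells overnight before dosing, compound overnight, 37 °C, 5% CO2 | Evaluation: GFP/RFP fluorescence ratio | Control set: DMSO-only wells and HT1080 RFP-L50D-GFP cell wells as references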
Rce1 inhib = yeast Ras-converting enzyme inhibition; Q03530; yeast membranes, quenched prenylated peptide cleavage fluorescence; calls only; 290,000 tested, 0.27% active; AID 2563;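 active = fall in fluorescence gain of 50% or more versus controls, with final raw signal at or below 3038400; inconclusive = same 50% fall but final raw signal above 3038400; inactive = fall in fluorescence gain under 50%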;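 also: plate controls were neutral control wells for no effect and wells lacking membranes for full effect; tested at 10 µM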
Env fusion inh = inhibitors of HIV Env-mediated cell fusion; HeLa-JRFL Env/CEM21 cell fusion, luciferase; inhibition, % at 12.3 µM; 360,000 tested, 1.1% active;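 active = mean replicate inhibition score of at least 50 and every replicate individually at or above 50; inconclusive = only one of the two criteria met; inactive = mean below 50 and not all replicates reaching 50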;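 also: 0% = plate neutral controls and 100% = maraviroc near 300 nM; one replicate is shown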
CSC inhib = cancer stem cell inhibition; inhibition, % at 7.5 µM; cancer stem cell-like cells viability, luminescence; 300,000 tested, 1.1% active; AID 2717;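 active = mean at 75% or more and at least half the replicates too; inconclusive = mean and replicates disagree; tested in HMLE shEcad cells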;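 also: 0% = median of negative and 100% = median of positive control wells; the first replicate is given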
UUG fidelity = alters start codon recognition fidelity in yeast; S. cerevisiae UUG-firefly luciferase reporter, luminescence/redox ratio; 350,000 tested, 0.13% active; activity score, % at 18.7 µM;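 active = replicate mean at a twofold rise or more, about +100% in these data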;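 also: firefly luciferase made from a UUG start codon reports start codon fidelity; reporter light over untreated wells divided by growth signal over untreated wells; some hits fall short of that in this replicate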
PABP FP inh = PABP-poly(A) binding inhibition | P11940 | PABP-poly(A) RNA binding, fluorescence polarization | inhibition, % at 35 µM | 290,000 tested, 1% active;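 active = 50% or more with normal probe brightness, or confirmed in later tests; inconclusive = above 50% with abnormal brightness, or retests that disagree; inactive = below 50% or failed in later tests; about a fifth of its hits are not listed in these tables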;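 also: calls also rest on retests at 20 µM and on dose response follow-up; controls were probe without protein and protein plus probe with vehicle; some compounds called inactive have numbers as strong as hits; many hits fall short of the cut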
Target sequence (P11940 whole entry, looked up): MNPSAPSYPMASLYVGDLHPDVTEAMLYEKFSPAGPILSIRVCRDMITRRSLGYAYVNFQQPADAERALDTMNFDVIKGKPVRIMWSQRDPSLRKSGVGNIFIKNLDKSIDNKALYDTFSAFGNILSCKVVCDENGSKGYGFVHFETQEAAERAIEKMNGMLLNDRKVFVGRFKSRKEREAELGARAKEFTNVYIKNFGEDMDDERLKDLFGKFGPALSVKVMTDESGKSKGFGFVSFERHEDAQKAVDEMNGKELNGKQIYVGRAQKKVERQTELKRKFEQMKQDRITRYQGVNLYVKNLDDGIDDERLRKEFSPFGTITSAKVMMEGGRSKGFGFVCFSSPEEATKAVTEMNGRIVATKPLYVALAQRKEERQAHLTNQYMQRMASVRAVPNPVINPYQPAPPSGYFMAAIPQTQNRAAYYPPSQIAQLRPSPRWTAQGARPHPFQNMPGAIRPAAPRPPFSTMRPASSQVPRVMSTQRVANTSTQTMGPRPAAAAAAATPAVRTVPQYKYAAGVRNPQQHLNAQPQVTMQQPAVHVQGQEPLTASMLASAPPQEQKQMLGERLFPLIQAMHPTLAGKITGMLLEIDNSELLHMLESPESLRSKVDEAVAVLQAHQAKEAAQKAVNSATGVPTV
eIF4H FP inh = inhibitors of RNA binding by human eIF4H; Q15056; eIF4H fluorescence polarization binding assay; inhibition, % at 35 µM; 290,000 tested, 0.94% active;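 active = 50% or more with normal probe brightness, or confirmed in later tests; inconclusive = above 50% with abnormal brightness, or retests that disagree; inactive = below 50% or failed in later tests; about a fifth of its hits are not listed in these tables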;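 also: calls also rest on retests at 20 µM and on dose response follow-up; 0% = protein and probe with vehicle and 100% = probe without protein; strong numbers were not always called active; many hits fall short of the cut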
eIF4H FP inh retest = also measured in eIF4H FP inh; calls as there; inhibition, %; compound at 20 µM; confirmation average;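 mean of two retest wells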
PABP FP inh retest = also measured in PABP FP inh; calls as there; inhibition, %; compound at 20 µM; confirmation repeats;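 mean of two retest wells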
MT1-MMP act inh RFP = further read-out of MT1-MMP act inh, marked with its call; RFP signal change, %; measured here: RFP expression control read;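 0 = vehicle wells; hits needed this value within 50% of zero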
Active calls of the source: *; i = inactive; ? = inconclusive; · = no result given. A portion of the library, so the mix of outcomes need not match the whole.

SMILES	MT1-MMP act inh	MT1-MMP act inh RFP	Rce1 inhib	Env fusion inh	CSC inhib	UUG fidelity	PABP FP inh	eIF4H FP inh	others
CCOc1ccc(NC(=O)CSc2nccn2C)cc1	-4	-2	i	-38	7	-13	?	-8
COc1cccc(-c2c(-c3cc(OC)cc(OC)c3)n(C)c3ccc(Br)cc23)c1	-12	-4	·	10	37	-17	·	·
Cc1ccc(S(=O)(=O)NC(=O)C2(C)CCN2C(=O)CC2CCCCC2)nc1 (stereo unspecified)	-1	2	·	0	·	27	·	·
COc1ccc(/C=C2\SC(c3ccc(C)cc3)=NC2=O)cc1OC	11	3	i	·	4	-10	17	?
O=C(Cc1n[nH]c(=O)c2ccccc12)N1CCN(S(=O)(=O)c2ccc(F)c(Cl)c2)CC1	-1	1	·	0	-6	-6	·	·
CN(CCCCCC(=O)/C=N/O)Cc1ccccc1	7	6	i	1	2	·	2	10
CCOC(=O)Nc1ccc2c(c1)N(C(=O)CN1CCN(C)CC1)c1ccccc1CC2	-7	3	i	4	-2	3	1	4
O=S(=O)(Nc1ccc(Br)cc1)c1cccc2nonc12	0	0	i	-14	5	-8	-4	-15
Cc1ccsc1CN(C)C(=O)CN1C(=O)NC(c2ccccc2)(c2ccccc2)C1=O	-4	-1	·	-48	·	-12	·	·
CN(CCCC1CCCC1)C(=O)CC1C(=O)NCCN1Cc1cccc(F)c1F (stereo unspecified)	-3	0	i	5	6	20	7	5
COc1ccc(-c2c(C#N)c(N)nc(Sc3ccc(Cl)cc3)c2C#N)cc1	-3	1	i	-5	17	·	-4	-7
Cc1nn(C)c(C(=O)NNC(=S)NCc2ccco2)c1Cl	-1	-1	i	-51	·	-33	17	-6
CC1(C)Cc2ccccc2C(=O)N1	0	7	i	·	-15	·	-6	-12
CC(C)C1C(=O)N(Cc2cn(CCC3OCCCO3)nn2)CCS(=O)(=O)N1Cc1ccc(-c2ccc(Cl)c(Cl)c2)cc1 (stereo unspecified)	-2	-7	·	-20	·	-8	·	·
Cc1ccc(NC(=S)N2CCC(c3ccccc3)C2)c(Cl)c1 (stereo unspecified)	6	2	i	-39	-18	·	-7	-2
Nc1c2c(nc3ccc(Br)cc13)N(c1ccccc1)CC2	3	-2	·	·	19	0	7	4
c1ccc(CSc2nnc(-c3ccco3)n2Cc2ccco2)cc1	-4	-3	i	-18	9	-19	2	-3
COCCSc1nnc(NC(=O)COC)s1	3	2	i	-17	-6	-5	3	4
Cc1c(Cl)c([N+](=O)[O-])nn1CC(=O)NCC1CCCO1 (stereo unspecified)	1	3	i	9	-10	5	-1	-6
O=S(=O)(c1ccccc1Cl)N1CCCC1c1nc(-c2ccccc2Cl)no1 (stereo unspecified)	0	-10	i	33	-4	·	2	-8
CC(NC(=O)Cn1nc(C(=O)O)c2ccccc2c1=O)c1ccccc1 (stereo unspecified)	-4	-4	i	·	-5	-9	-4	1
CC1CC(CC(C)C(=O)NC(=S)Nc2ccc(S(N)(=O)=O)cc2)C(=O)O1 (stereo unspecified)	-5	0	i	-11	·	·	0	-9
COc1ccc2ncc(S(=O)(=O)c3ccccc3)c(N3CCC4(CC3)OCCO4)c2c1	-5	-6	i	10	·	·	-19	-12
CCN1C(=O)[C@H]2[C@@H](c3ccc(C(F)(F)F)cc3)N[C@]3(CCCN(Cc4ccc(Br)cc4)C3=O)[C@H]2C1=O	6	-1	·	-32	·	8	·	·
O=C(CN1CCN(Cc2ccc(Cl)cc2)CC1)N/N=C/c1c[nH]c2ccccc12	0	-2	i	1	-1	·	-12	-7

Continuation.
SMILES	MT1-MMP act inh	MT1-MMP act inh RFP	Rce1 inhib	Env fusion inh	CSC inhib	UUG fidelity	PABP FP inh	eIF4H FP inh	others
C[C@H](O)[C@@H]1C(=O)N2CCc3ccc(-c4ccccc4)cc3[C@@H]2C[C@@H]1N(C)C(=S)Nc1ccc(F)cc1	5	4	·	-70	·	0	·	·
COc1cccc(C(=O)c2cc3cc(Cl)ccc3[nH]2)c1	-5	-10	i	-25	38	-18	-9	1
C=CCNC(=S)NNC(=O)Cn1c(-c2ccccc2)cc(=O)n2ncnc12	-3	0	i	-55	-7	-1	1	1
Cc1ccc2[nH]c(=O)c(CN(CCO)C(=O)N(C)C)cc2c1	5	2	i	10	-4	-22	·	·
Cc1nnnn1/C(=C\c1ccccc1)C(=O)OCC(=O)Nc1ccc(Cl)cc1F	0	-6	i	·	-3	-9	·	·
Clc1cccc2c1Sc1ccccc1CC2N1CCNCC1 (stereo unspecified)	-13	-9	i	4	-6	·	-5	-12
CC(c1nccs1)N(C)c1nc2nonc2nc1N(C)C (stereo unspecified)	2	5	i	-24	-19	·	9	26
Cc1ccc(N2C(=O)[C@@H]3C(C(=O)C(c4ccccc4)c4ccccc4)=NN[C@@H]3C2=O)cc1	-1	1	i	25	4	·	-4	7
CN1C(=O)CC(=O)N(C)c2cc(S(=O)(=O)N(C)Cc3ccccc3)ccc21	1	3	i	-7	-11	-9	·	·
Cc1ccccc1NC(=O)COC(=O)COc1ccc2ccc(=O)oc2c1	-1	-1	·	1	·	-20	·	·
CC(=O)/C(=N/Nc1ccc([N+](=O)[O-])cc1)N1CCCc2ccccc21	-9	-13	i	11	-21	-16	-4	1
O=C(O)C1CC=C(Cl)CC1C(=O)NCC1OCCc2ccccc21 (stereo unspecified)	-2	3	i	·	·	-9	5	-8
O=C(O)Cc1sc(NCc2ccco2)nc1-c1ccccc1	-24	3	i	-4	-6	-28	2	-1
FC(F)(F)c1nc(N2CCCC2)ncc1-c1nnnn1-c1ccc(Cl)cc1	-7	-13	i	58*	19	·	-3	-1
CC(C)COC(=O)N1CCCC1C(=O)O (stereo unspecified)	-3	-1	i	-36	9	-16	39	-5
CCN(Cc1ccccc1)C(=O)COC(=O)c1cc(S(=O)(=O)Nc2ccccc2OC)ccc1O	2	-4	·	·	-8	-5	·	·
Cc1cc(S(=O)(=O)N2CCOCC2)ccc1F	-2	2	i	-29	1	-7	-9	5
CCCNC(=O)Cn1cnc2sc(C(=O)Nc3ccc4c(c3)OCO4)c(C)c2c1=O	-2	1	i	·	-10	-3	-8	1
CC(C)[C@H]1C(=O)Nc2ccccc2N1C(=O)N[C@@H](Cc1ccccc1)C(=O)N[C@@H](Cc1ccccc1)C(=O)O	-1	0	i	·	5	13	1	1
CSc1ccc(NC(=O)CSc2nc3[nH]c(=O)cc(O)c3s2)cc1	-2	4	·	-9	-9	-15	·	·
Cc1cc(C)nc(SCC(=O)c2cc3ccccc3oc2=O)n1	0	8	i	·	-5	-15	5	-2
CC(C)(C)C(=O)COC(=O)c1cc(S(=O)(=O)N2CCCCC2)ccc1N1CCOCC1	5	3	i	6	10	14	·	·
Cc1cccc(OCC(=O)NS(=O)(=O)c2ccc(Br)cc2)c1	-1	2	i	4	-5	-6	2	-10
S=c1[nH]nc(-c2ccc3ccccc3n2)n1-c1ccc(Cl)cc1	-2	1	i	-15	-16	-22	12	-2
COCCN1CCN(C(=O)c2ccc3nc(Cc4ccccc4F)oc3c2)CC1	-4	1	i	1	0	-17	1	65	eIF4H FP inh retest=5;PABP FP inh retest=24

(further entries)
SMILES	MT1-MMP act inh	MT1-MMP act inh RFP	Rce1 inhib	Env fusion inh	CSC inhib	UUG fidelity	PABP FP inh	eIF4H FP inh	others
CC(=O)c1c(C)[nH]c(C(=O)CSc2nnc(CN3CCCCCC3=O)n2-c2ccccn2)c1C	-1	1	i	4	-1	-13	-4	0
COC(=O)c1ccc2nc(-c3ccc(C)cc3)c(CC3CCCCC3)n2c1	-14	-1	·	-11	·	-10	·	·
COc1cc(C(=O)N2CCCC(c3cc(C(=O)NCc4ccccc4)no3)C2)cc(OC)c1C (stereo unspecified)	4	-2	·	5	·	-6	·	·
O=C(COc1ccc2ccc(=O)oc2c1)Nc1cc([N+](=O)[O-])ccc1F	3	-5	·	-14	7	3	·	·
O=C(NCC1CCCO1)C(c1ccco1)N(Cc1ccc(F)cc1)C(=O)CN1C(=O)c2ccccc2S1(=O)=O (stereo unspecified)	-4	-3	i	-2	-8	-10	10	-3
CC(Oc1cc(F)ccc1[N+](=O)[O-])C(=O)N(C)CC(=O)Nc1ccccc1C(F)(F)F (stereo unspecified)	0	0	i	1	6	·	2	3
O=C(CSc1nc2ncccc2[nH]1)Nc1ccc2c(c1)OCO2	-5	-8	i	3	-7	-16	11	2
CCOC(=O)c1oc2ccccc2c1CN1CCN(C(=O)c2ccccc2)CC1	-2	-1	i	1	-17	-15	-18	1
COCCn1c(Sc2ccccc2)nc2c1c(=O)[nH]c(=O)n2C	2	5	i	-201	-8	-14	-7	0
CCCCNC(=O)Nc1nc(SCC(=O)OCC)n[nH]1	4	3	i	17	-12	-15	3	-6
Cc1ccc(-c2cn(-c3ccccc3)c(=S)[nH]2)cc1C	2	-3	i	-144	-1	-37	2	0
O=S(=O)(c1ccccc1)N1CCN(C(=S)Nc2ccccc2)CC1	1	8	i	-8	8	-18	-17	-13
CC#CCC(CC#CC)c1nc2ccccc2c(=O)n1N	8	11	i	-26	-6	-12	9	2
COC(=O)c1c(-c2ccccc2)csc1N	6	3	i	8	15	-17	4	-10
COc1ccc(OC)c(C2CC(=O)N3CN(c4ccccc4F)CSC3=C2C#N)c1 (stereo unspecified)	1	2	i	-7	-5	-5	25	17
CCOC(=O)OC(C)OC(=O)[C@@H]1N2C(=O)[C@@H](NC(=O)[C@H](N)c3ccccc3)[C@H]2SC1(C)C (stereo partly specified)	-1	2	·	25	-13	-12	·	·
CN(C)c1ccc(C(=O)OCC#CCSc2nnc(-c3cccc4ccccc34)o2)cc1	0	-1	·	16	·	-4	·	·
Cc1nnsc1C(=O)Nc1cccc(Cl)c1	2	-3	i	22	-4	4	0	-8
Cc1ccc(CNC(=O)CCC(=O)Nc2nnc(C)s2)cc1	0	2	i	-8	-8	-13	-9	0
C=C(C)C(=O)Nc1cccc(C2=NOC3(C2)C[C@@H](C(N)=O)N(C(=O)c2ccc(OC)cc2)C3)c1 (stereo partly specified)	3	-1	i	·	-4	-8	54*	106*
CC(=O)Nc1ccc(S(=O)(=O)NCc2nc(-c3ccccc3C)no2)cc1	3	4	i	-7	-6	-5	7	-2
CC1CCc2c(sc3c2C2=NS(=O)(=O)CCN2C=N3)C1 (stereo unspecified)	2	-2	i	·	-12	14	0	-5
C=CCn1cccc(C(=O)Nc2ccc(OC)cc2OC)c1=O	2	-1	i	-20	4	·	-5	-9
COc1ccc(C(=O)Oc2cc(C(=S)N3CCOCC3)ccc2OC)cc1	-1	0	i	-2	·	-21	4	-13
CCCC(=O)N1CCC(CCC(=O)NC2CC2)CC1	0	5	i	-6	5	-17	-12	-3
O=C(Nc1ccccc1F)C1CCCN(S(=O)(=O)c2cccc3cccnc23)C1 (stereo unspecified)	-1	-2	i	-2	·	0	10	-4
O=C1/C(=C/c2ccc([N+](=O)[O-])cc2)Oc2cc(O)ccc21	-21	-13	i	11	24	·	0	16
CCc1nc2c(OCCC3CCCCC3)cccn2c1N(C)C(=O)c1cccs1	-12	-9	·	10	·	-9	·	·
